High-throughput results as filed in PubChem.
NS1 function inh – inhibitors of influenza NS1 protein function | actives 0.4% (n = 270,000) | AID 2326 | S. cerevisiae slowed by influenza A NS1, growth recovery by OD600 | Potency, µM (series often up to 46.1 µM), without a hit: top-dose activity, positive = more growth; active means well fitted rising curve with a large enough effect; inconclusive means small, poorly fitted or top-dose-only effect; inactive means no such curve, though single readings can be large or run the other way; also: nearly all actives have a fitted effect of over 50% in size
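Recovery from NS1-induced slow growth read by OD600 in budding yeast switched to galactose assay medium (pH 6.0, -URA) at 1:100 dilution. Compound 23 nl per well; the matching strain lacking NS1 serves as control.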
SARS PLpro yeast – inhibitors of SARS-CoV papain-like protease in yeast; S. cerevisiae expressing SARS-CoV PLpro, growth rescue; control for the full effect not named in the record; Potency, µM (top dose mostly 32.9 µM), for the others: top-dose activity, positive = growth rescue; actives 0.19% (n = 330,000); AID 485353; active means well fitted rising curve with a large enough effect; inconclusive means small, poorly fitted or top-dose-only effect; inactive means no such curve, though single readings can be large or run the other way; also: 0% is about no effect; nearly all actives have a fitted effect of over 55% in size; growth read by luminescence after 48 h
Cruzain noTriton – cruzain (T. cruzi) inhibition without detergent; P25779; purified cruzain, Z-FR-AMC fluorescence, no detergent; Potency, µM, without a hit: max response, negative = inhibition, most hits filed as inhibitors; actives 2.3% (n = 200,000); AID 1476;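 also: plate controls were enzyme without inhibitor for no effect and buffer without enzyme for full effect; nearly all actives have a fitted effect of over 40% in size; top concentration of the series not given in the record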
Target sequence (P25779 123-467 limits assumed): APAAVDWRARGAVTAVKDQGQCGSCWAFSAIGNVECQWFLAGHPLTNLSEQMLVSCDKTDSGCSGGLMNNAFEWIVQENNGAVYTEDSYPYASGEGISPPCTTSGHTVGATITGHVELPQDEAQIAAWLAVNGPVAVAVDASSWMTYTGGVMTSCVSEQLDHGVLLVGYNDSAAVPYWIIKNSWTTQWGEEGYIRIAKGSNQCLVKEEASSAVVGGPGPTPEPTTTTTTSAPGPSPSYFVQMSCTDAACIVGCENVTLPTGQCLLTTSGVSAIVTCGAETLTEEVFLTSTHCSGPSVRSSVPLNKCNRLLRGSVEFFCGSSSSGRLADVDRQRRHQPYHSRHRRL
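Detergent-free condition (0.00005% Triton X-100) in acetate buffer pH 5.5 with DTT. 1.5 nM enzyme and compound were pre-mixed 15 min, then 2 uM Z-FR-AMC substrate added; reaction progress from fluorescence change between first and third reads (60 s).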
Cruzain Triton – inhibitors of Trypanosoma cruzi cruzain with detergent; purified cruzain, Z-FR-AMC fluorescence, 0.01% Triton; Potency, µM, for inactives: max response, negative = inhibition, hits mostly inhibitors; actives 0.43% (n = 200,000);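 also: plate controls were neutral wells for no effect and buffer without enzyme for full effect; nearly all actives have a fitted effect of over 40% in size; top concentration of the series not given in the record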
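In this qHTS format, compounds are incubated with 1.5 nM cruzain for 15 min at room temperature before 2 uM Z-FR-AMC is added. Release of AMC is followed at 360/450 nm, and progress is taken as the 60 s fluorescence difference.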
StopGo reporter – FMDV 2A StopGo reporter, luciferase signal; human cells with a luciferase reporter of 2A StopGo recoding; control for the full effect not named in the record; Potency, µM (highest dose often 57.9 µM), without a hit: top-dose signal change, negative = less light; actives 1.2% (n = 410,000); AID 1159524; active = well fitted falling curve with a large enough effect; inconclusive = small, poorly fitted or top-dose-only effect; inactive = no such curve, though single readings can be large or run the other way; tested in HEK293T cells; also: % is scaled to controls: 0 for no effect and ±100 for the full control effect; nearly all actives have a fitted effect of over 45% in size; luciferase light after 4 h
MARV entry inh – inhibitors of Marburg virus binding or cell entry. Marburg virus pseudotyped entry inhibition, cell reporter; control for the full effect not named in the record; about a third of the inactives were read at about 46 µM. Potency, µM (top dose mostly 37.8 µM), without a hit: at the highest dose activity change, negative = inhibition, hits mostly inhibitors. actives 1.8% (n = 300,000); active = well fitted inhibition curve with a large enough effect; inconclusive = small, poorly fitted or top-dose-only effect, or effect the other way; inactive = flat fitted curve, though single readings scatter; tested in HEK293 cells; about a fifth of its hits are not listed in these tables; also: % is scaled to controls: 0 for no effect and ±100 for the full control effect; luciferase read-out
RE007 growth inh – less growth of the S. pombe RE007 Vpr strain | S. pombe RE007 Vpr strain, BacTiter-Glo ATP luminescence, 24 h; control for the full effect not named in the record | actives 0.21% (n = 360,000) | Potency, µM (top dose mostly 92.2 µM), without a hit: at the top dose activity change, negative = less growth; active = well fitted falling curve with a large enough effect; inconclusive = small, poorly fitted or top-dose-only effect; inactive = no such curve, though single readings can be large or run the other way;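 also: % is scaled to controls: 0 for no effect and ±100 for the full control effect; nearly all actives have a fitted effect of over 50% in size; the assay follows cell death caused by Vpr and the record does not say whether a fall means rescue or toxicity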
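Fission yeast RE007 carrying one integrated HIV-1 vpr copy, seeded at OD 0.01 in PMG+AL medium with 23 nL pinned compound. Grown 24 h at 30 degrees; viability read by BacTiter-Glo luminescence after 5 min.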
Lassa entry inh – inhibitors of Lassa virus binding or cell entry; Lassa virus pseudotype entry inhibition, cell reporter; control for the full effect not named in the record; Potency, µM (highest dose often 37.9 µM), for the others: at the highest dose activity change, negative = inhibition, most hits filed as inhibitors; actives 1.2% (n = 300,000); active means well fitted inhibition curve with a large enough effect; inconclusive means small, poorly fitted or top-dose-only effect, or effect the other way; inactive means flat fitted curve, though single readings scatter; tested in HEK293 cells; also: % is scaled to controls: 0 for no effect and ±100 for the full control effect; nearly all actives have a fitted effect of over 50% in size; luciferase read-out
An asterisk follows results filed as active; u = inconclusive; x = not tested or not shown; & = joins results of further samples; [ ] = remark or other dose. Unless noted, calls follow the shape of the dose curve; as a rule, active = well fitted curve in the direction sought with a large enough effect; inconclusive = small, poorly fitted or top-dose-only effect, or another doubt; inactive = no such curve, though single readings can be large; an effect the other way counts as inactive or inconclusive. Potency is read from the fitted curve at half-maximal effect.

SMILES	NS1 function inh	SARS PLpro yeast	Cruzain noTriton	Cruzain Triton	StopGo reporter	MARV entry inh	RE007 growth inh	Lassa entry inh
Cc1cc(C)c(C#N)c(SCSCc2ccccc2)n1	-6%	-12%	-10%	-7.2%	x	-4%	-12%	-17%
Cc1cc(NC(=O)C2C3C(=O)N(c4cccnc4)C(C(=O)NC(C)(C)C)C34C=CC2(C)O4)no1 (stereo unspecified)	4%	0%	x	x	-1%	9%[46.1 µM]	4%	-21%
CN1C(=O)c2cccc(NCCCN3C(=O)c4ccccc4C3=O)c2C1=O	-2%	5%	5%	12%	4%	u	18%	-15%
O=C(O)c1ccccc1Sc1ncnc2sc3c(c12)CCC3	-3%	0%	x	x	-3%	6%	6%	5%
CCN(CC)CCN(Cc1cc2cc3c(cc2[nH]c1=O)OCCO3)C(=S)NCCCOC	6%	13%	x	x	-8%	1%	-7%	12%
CC(C)n1c(=O)[nH]c2cc(C(=O)Nc3ccccc3)ccc21	2%	0%	x	x	16%	-7%	-3%	-16%[46.1 µM]
COC(=O)c1ccc(-n2nnnc2SCc2ccccc2OC)cc1	-59%	-8%	1%	-6.7%	u	-5%	0%	u
Cc1ccccc1Nc1nc(N)nc(COC(=O)c2ccc(S(=O)(=O)N(C)C)cc2)n1	16%	-14%	12%	-0.8%	0%	2%	4%	-1%
Cc1ccc2cc3cc(C(=O)N4CCCCC4C)oc3nc2c1 (stereo unspecified)	-54%	-1%	-5%	-4.6%	-9%	u	-20%	u
Oc1ccc(-c2n[nH]c(=S)n2Cc2ccco2)cc1	-4%	-4%	11%	-0.6%	-5%	-5%	-8%	0%
Cc1ccc(NC(=O)c2ccccc2NC(=O)c2cccnc2)cc1	-4%	-2%	x	x	-13%	-20%	-13%	15%
COc1cc(Nc2nc(SCc3ccc(Cl)cc3)nc3ccccc23)cc(OC)c1	x	x	u	4.5%	-17%	x	x	8%[46.1 µM]
CC(C(=O)c1ccccc1)N1C(=O)c2ccccc2C1=O (stereo unspecified)	5%	u	9%	1.4%	1%	-4%	9%	u
COC(=O)c1cc2c(s1)CS(=O)C2 (stereo unspecified)	-7%	11%	6%	1.0%	-8%	u	-9%	12%
CCOC(=O)Cn1nc(C)c(NC(=O)c2ccc([N+](=O)[O-])c(C)c2)c1C	x	2%	x	x	8%	-7%[46.1 µM]	-12%	-2%[46.1 µM]
O=C(Cn1nc(N2CCN(c3ccccc3)CC2)ccc1=O)NCc1ccccc1F	x	x	4%	-0.1%	-14%	x	x	-7%[46.1 µM]
O=C(NCCC1=CCCCC1)C1CC(=O)N(C2CCCCC2)C1 (stereo unspecified)	-20%	-1%	16%	-2.6%	x	20%	0%	-5%
COc1ccc(CCNC(=O)C2CCCN(C(=O)N(C)C)C2)c(OC)c1 (stereo unspecified)	-4%	-2%	-2%	5.1%	x	0%	4%	15%
COc1cc(Oc2nc(C(F)(F)F)nc3ccccc23)ccc1C=O	10%	0%	x	x	-28%	x	-6%	x
CCN(CC)C(=O)CSc1nnc(-n2nc(C)cc2C)c2ccccc12	-6%	4%	1%	1.2%	4%	-7%	4%	26%[14.3 µM]
COc1ccc(-c2nnc(SC(C)C(=O)O)o2)cc1 (stereo unspecified)	x	x	-12%	-4.1%	-3%	6%[46.1 µM]	x	-29%[46.1 µM]
Cc1cc(C(=O)N2CCC(Cc3ccccc3)CC2)c(C)o1	-1%	19%	x	x	13%	9%[46.1 µM]	3%	5%[46.1 µM]
COc1ccc(NC(=O)CCS(=O)(=O)c2ccc3c(c2)CCCN3C(C)=O)cc1Cl	3%	-2%	7%	1.9%	-15%	5%	18%	-1%
Cc1ccc(CN2CC(C(=O)Nc3ccc4c(C)cc(=O)oc4c3)CC2=O)cc1 (stereo unspecified)	u	3%	u	-13%	-10%	1%	12%	-24%
O=C(Nc1cccc2ncccc12)c1ccccc1F	2%	-2%	x	x	-4%	x	2%	x
Cc1cc(S(=O)(=O)Nc2nc(CN3CCOCC3)nc3sc4c(c23)CCCC4)ccc1F	1%	-13%	u	-15%	1%	7%[46.1 µM]	19%	-4%
CCC1CCCCN1CCCNC(=O)c1c(C)oc2ncn(CC(C)C)c(=O)c12 (stereo unspecified)	x	x	-13%	-1.2%	14%	x	x	u
O=C(c1cc(F)c(F)cc1Cl)N1CCCc2ccccc21	-14%	0%	x	x	-16%	u	-4%	39%[46.1 µM]
CC(=O)NCc1cc(-c2nn(C)c(=O)c3ccccc23)ccc1C	8%	-1%	10%	2.3%	-16%	10%	12%	-3%
CC(=O)c1ccc(N2CCN(C(=O)CCCCn3c(=O)[nH]c4ccccc4c3=O)CC2)cc1	x	x	13%	2.4%	u	x	x	-2%[46.1 µM]
COc1cc(NC(=O)CCC(=O)N2CCN(S(=O)(=O)c3ccc(C)cc3)CC2)cc(OC)c1	x	x	x	x	-20%	-16%	4%	1%
O=C(O)CCC(=O)Nc1ccc(Cc2ccc(NC(=O)CCC(=O)O)c(O)c2)cc1O	9%	6%	-5%	-0.6%	2%	7%	21%	7%
CCCn1c(SCC(=O)C(C)(C)C)nc2ccccc21	x	0%	x	x	5%	-24%[46.1 µM]	10%	0%[46.1 µM]
COc1ccccc1-c1nc(C#N)c(NCCCn2ccnc2)o1	1%	-1%	x	x	22%	-28%[46.1 µM]	-11%	2%
CC(=O)NC(CC(=O)Nc1nc(-c2ccccc2)c(C(C)=O)s1)c1ccccc1 (stereo unspecified)	13%	7%	x	x	-4%	-2%	2%	u
Cc1nnc2n(-c3ccccc3)c(=O)c3c4c(sc3n12)COC(C(C)C)C4 (stereo unspecified)	9%	-3%	2%	-4.0%	-21%	14%	1%	-3%
CCOc1ccccc1NC(=O)CN1CCC(NC(=O)Nc2ccccc2)CC1	-6%	4%	x	x	4%	12%[46.1 µM]	65%	-19%
COc1coc(C(O)CN)cc1=O (stereo unspecified)	13%	-7%	-1%	0.7%	18%	-1%[46.1 µM]	15%	0%
O=C(CN1C(=O)COc2ccccc21)NCCCN1CCc2ccccc2C1	4%	3%	5%	-4.2%	x	-10%	-4%	-13%
CC1CCCN(c2cc(N(C)CCO)c([N+](=O)[O-])c3nonc23)C1 (stereo unspecified)	x	1%	x	x	22%	25%[46.1 µM]	5%	9%
O=C(c1ccc(N2CCN(C(=O)c3ccc(F)c(F)c3)CC2)cc1)c1cccc(F)c1	-1%	5%	x	x	0%	x	-8%	x
Cc1ccc(OCC(=O)c2cc(C)n(CC(F)(F)F)c2C)c([N+](=O)[O-])n1	8%	0%	x	x	-22%	-3%[46.1 µM]	0%	-22%[46.1 µM]
C/C(=N\Nc1nc(C)cc(-c2ccccc2)n1)c1ccc(F)cc1	2%	8%	x	x	-1%	x	2%	x
CCc1cccc2c(C(=O)Cn3nnc(-c4ccc(OC)c(OC)c4)n3)c[nH]c12	u	0%	u	-5.7%	u	u	14%	u
CCN1CCN(C(c2ccccc2)c2c(O)cc(C)n(Cc3ccco3)c2=O)CC1 (stereo unspecified)	x	x	u	-0.6%	-10%	x	x	-1%[46.1 µM]

Pulled one by one from above:
SMILES	NS1 function inh	SARS PLpro yeast	Cruzain noTriton	Cruzain Triton	StopGo reporter	MARV entry inh	RE007 growth inh	Lassa entry inh
CCOc1ccccc1NC(=O)CN1CCC(NC(=O)Nc2ccccc2)CC1	-6%	4%	x	x	4%	12%[46.1 µM]	65%	-19%
C/C(=N\Nc1nc(C)cc(-c2ccccc2)n1)c1ccc(F)cc1	2%	8%	x	x	-1%	x	2%	x

Next section.
SMILES	NS1 function inh	SARS PLpro yeast	Cruzain noTriton	Cruzain Triton	StopGo reporter	MARV entry inh	RE007 growth inh	Lassa entry inh
Cn1c(=O)c2c(ncn2Cc2cc(-c3ccccc3)no2)n(C)c1=O	-13%	-7%	19%	2.3%	-14%	-26%	-6%	-2%
O=C(C1CCCN1S(=O)(=O)c1ccc(Cl)cc1)N1CCN(c2ccccc2)CC1 (stereo unspecified)	x	-1%	x	x	-16%	9%[46.1 µM]	10%	-25%[46.1 µM]
O=C(NCCN1C(=O)C2C3C=CC(C3)C2C1=O)NCc1ccccc1 (stereo unspecified)	8%	6%	5%	2.6%	0%	0%	6%	x
Cc1cccc(CCNC(=O)c2cccc(N3CCCC3=O)c2)c1	-6%	2%	x	x	49%[activator]	x	-8%	x
CCOC(=O)C1(Cc2ccccc2)CCN(Cc2ccc3cc(NC(C)=O)ccc3n2)CC1	0%	0%	x	x	-10%	0%[46.1 µM]	3%	-4%
CCOC(=O)Cc1csc(NC(=S)NC(=O)c2ccc(F)cc2)n1	-13%	4%	2%	0.3%	-20%	16%	u	-13%
CC(=O)c1ccc(NC(=O)c2ccc(-c3nc(CSc4ccc(C)cc4)c(C)o3)cc2)cc1	x	x	u	-2.2%	0%	x	x	-7%[46.1 µM]
CCC(C)Sc1c(C(C)C)cnc2c1c(=O)n(C)c(=O)n2C (stereo unspecified)	x	x	-7%	-3.8%	u	x	x	-8%[46.1 µM]
C/C(=N/Nc1ccccc1[N+](=O)[O-])c1ccc(C)c([N+](=O)[O-])c1	5%	1%	x	x	14%	x	-3%	x
Cc1ccc2[nH]c(=O)c(-c3nc4c(C)cccn4c3NCc3ccco3)cc2c1	-8%	-16%	-6%	3.1%	-17%	u	-4%	5%
CCN(CC)CCN(C(=O)Cn1nnc(-c2ccc(OC)c(OC)c2)n1)C(C(=O)NC1CCCC1)c1ccc(F)cc1 (stereo unspecified)	4%	-4%	2%	1.8%	x	u	-14%	-22%
O=C(CCC1CCCN(C2C3CC4CC(C3)CC2C4)C1)NCc1ccc(F)c(F)c1 (stereo unspecified)	-4%	1%	x	x	-17%	u	-18%	-7%[46.1 µM]
CN1C(=O)NC(c2ccccc2[N+](=O)[O-])C2=C1CC(C)(C)CC2=O (stereo unspecified)	12%	2%	x	x	-1%	u	8%	22%[46.1 µM]
O=C(NCCN1CCN(c2ccccc2)CC1)c1ccc(NC(=O)C2CCCO2)cc1 (stereo unspecified)	-1%	3%	4%	0.1%	6%	14%&14%	-5%	-3%
O=C(CCl)NCCCN(C(=O)C(Cl)Cl)c1ccc([N+](=O)[O-])cc1	4%	2%	x	x	-29%	x	11%	x
